Rce1 inhib = inhibitors of yeast Ras-converting enzyme | AID 2563 | Q03530 | 290,000 tested, 0.27% active | yeast membranes, quenched prenylated peptide cleavage fluorescence | calls only;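 active = fall in fluorescence gain of 50% or more versus controls, with final raw signal at or below 3038400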;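 note: plate controls were neutral control wells for no effect and wells lacking membranes for full effect; tested at 10 µM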
Target sequence (Q03530 whole entry, looked up): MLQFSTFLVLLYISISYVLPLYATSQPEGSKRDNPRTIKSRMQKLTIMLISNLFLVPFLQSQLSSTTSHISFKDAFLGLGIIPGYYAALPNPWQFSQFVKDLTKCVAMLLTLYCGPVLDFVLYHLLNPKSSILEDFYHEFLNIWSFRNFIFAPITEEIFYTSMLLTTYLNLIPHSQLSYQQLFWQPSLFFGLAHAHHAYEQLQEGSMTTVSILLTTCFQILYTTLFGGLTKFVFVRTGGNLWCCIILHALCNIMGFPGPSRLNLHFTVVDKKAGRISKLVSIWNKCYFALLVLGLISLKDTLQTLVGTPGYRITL
Yeast UUG start = yeast start codon fidelity modulation; S. cerevisiae UUG-firefly luciferase reporter, luminescence/redox ratio; activity score, % at 18.7 µM; 350,000 tested, 0.13% active;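 active = replicate mean at a twofold rise or more, about +100% in these data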;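 note: firefly luciferase made from a UUG start codon reports start codon fidelity; reporter light over untreated wells divided by growth signal over untreated wells; some hits fall short of that in this replicate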
eIF4H inh = inhibitors of RNA binding by human eIF4H; Q15056; 290,000 tested, 0.94% active; inhibition, % at 35 µM; eIF4H fluorescence polarization binding assay;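 active = 50% or more with normal probe brightness, or confirmed in later tests; about a fifth of its hits are not listed in these tables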;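 note: calls also rest on retests at 20 µM and on dose response follow-up; 0% = protein and probe with vehicle and 100% = probe without protein; strong numbers were not always called active; many hits fall short of the cut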
CSC inhib = cancer stem cell inhibition; cancer stem cell-like cells viability, luminescence; inhibition, % at 7.5 µM; 300,000 tested, 1.1% active; AID 2717;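 active = mean at 75% or more and at least half the replicates too; tested in HMLE shEcad cells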;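 note: 0% = median of negative and 100% = median of positive control wells; the first replicate is given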
PABP polyA inh = PABP-poly(A) binding inhibition; AID 2014; PABP-poly(A) RNA binding, fluorescence polarization; 290,000 tested, 1% active; inhibition, % at 35 µM; P11940;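 active = 50% or more with normal probe brightness, or confirmed in later tests; about a fifth of its hits are not listed in these tables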;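 note: calls also rest on retests at 20 µM and on dose response follow-up; controls were probe without protein and protein plus probe with vehicle; some compounds called inactive have numbers as strong as hits; many hits fall short of the cut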
Numbers without * were called inactive; i = inactive; . = not tested or not shown. Some of the compounds tested (hit frequency here may not be typical).

SMILES	Rce1 inhib	Yeast UUG start	eIF4H inh	CSC inhib	PABP polyA inh
O=c1/c(=C/c2cn(-c3ccccc3)nc2-c2ccc(F)cc2)sc2nc3ccccc3n12	.	.	-3	.	-4
O=C(CCc1nc2ccccc2[nH]c1=O)OCC(=O)c1cccc2ccccc12	.	.	-3	.	1
Cc1nn(CC(=O)Nc2cccnc2N2CCOCC2)c(=O)c2ccccc12	.	.	-2	.	1
COCCn1c(-c2cc(OC)c(OC)c(OC)c2)nc2nc3ccccc3nc21	.	.	-3	.	-15
CN(CCCC[C@H](CNCc1ccc(-c2ccccc2)cc1)N1C[C@H](c2ccccc2)N(CCc2ccc(Cl)c(Cl)c2)C(=O)C1=O)Cc1ccc(-c2ccccc2)cc1	.	.	-53	.	-59
CCN(CC)CCNC(=O)c1ccc(NC(=O)c2ccc(Cl)c(S(=O)(=O)Nc3ccccc3OC)c2)cc1	.	.	-4	.	0
CC(C)OC(=O)C(C#N)c1nc2ccccc2nc1N1CCN(Cc2ccc3c(c2)OCO3)CC1 (stereo not drawn)	.	.	19	.	32
CCc1ccc2nc(NC3=NCN(CCN4CCOCC4)CN3)nc(C)c2c1	.	.	-4	.	-2
c1cncc(-c2nc3cc(Cc4ccc5oc(-c6cccnc6)nc5c4)ccc3o2)c1	.	.	3	.	-10
COc1ccc(C2c3c(oc4ccccc4c3=O)C(=O)N2Cc2ccncc2)cc1 (stereo not drawn)	.	.	-2	.	11
COc1cc(C(=O)Nc2c(-c3ccccn3)c(=O)c3ccccc3n2C)cc(OC)c1OC	.	.	-9	.	-2
COCCCn1c2nc3ccccc3nc2c2c(=O)n(Cc3ccc(Cl)cc3)c(C)nc21	.	.	0	.	1
CCOC(=O)N1CCC(NC(=O)c2cnn3c(C(F)(F)F)cc(-c4cccc(OC)c4)nc23)CC1	.	.	1	.	-20
CCn1c(SCC(=O)Nc2cc(C)on2)nc2sc(C)c(C)c2c1=O	.	.	3	.	8
COCCn1c(CN2CCN(c3ccc(F)cc3)CC2)nc2c1c(=O)n(C)c(=O)n2C	.	.	6	.	-1
CC(C)CNC(=O)c1c(N)n(/N=C/c2cccnc2)c2nc3ccccc3nc12	.	.	3	.	45
COC(=O)c1cc2occc2n1Cc1c(F)cccc1Cl	.	.	-8	.	-7
CCOc1ccc(C2/C(=C(/O)c3ccc(Cl)cc3)C(=O)C(=O)N2CCCN(C)C)cc1OC (stereo not drawn)	.	.	-6	.	-3
CCCCn1c(SCn2nnc3ccccc3c2=O)nc2cc(C(=O)OC)ccc2c1=O	.	.	-2	.	1
COC(=O)c1ccccc1NC(=O)Cn1cnc2c(cnn2-c2ccc(C)c(C)c2)c1=O	i	.	.	-6	.
Cc1ccc(O)c(O)c1	i	.	.	8	.
CCC(c1nnc(SCCNCCO)n1CCN1CCOCC1)N(C)C (stereo not drawn)	i	.	.	-8	.
Fc1ccc(-n2nnc(-c3ncc[nH]3)n2)cc1	i	.	.	-6	.
CCCN(CCC)c1nc2ccccc2nc1C(C#N)C(=O)OC(C)COC (stereo not drawn)	i	.	.	11	.
CC1=NN(c2ccccc2)C(=O)/C1=C/c1c(C)[nH]n(-c2ccc(C)cc2)c1=O	i	.	.	-6	.
CCSc1nc2sc3c(c2c2nnc(SCC(=O)NCc4ccco4)n12)CCCC3	i	.	.	2	.
O=C(c1cccc2ccccc12)n1nnc2ccccc21	i	.	.	32	.
COc1ccc(-c2oc3c4c(cc(OC)c3c(=O)c2CC=C(C)C)OC(C)(C)C=C4)c(OC)c1	i	.	.	101*	.
COc1ccc(C2c3c(oc4ccccc4c3=O)C(=O)N2CCCN2CCOCC2)cc1 (stereo not drawn)	i	.	.	-14	.
Cc1cc(NC(=O)CSc2nc(C3CC3)nc3sc4c(c23)CCC(C)C4)no1 (stereo not drawn)	i	.	.	-7	.
COc1ccc(-c2ccccc2)c2oc(-c3ccco3)cc(=O)c12	i	.	.	-18	.
CC(C)(C)OC(=O)NCCCCC1=CC2=CC(=O)C(C)(OC(=O)c3cnc4ccccc4n3)C(=O)C2=CO1 (stereo not drawn)	i	.	.	4	.
Oc1ccc(O)cc1	i	.	.	15	.
Cc1nn2c(-c3cccc(NC(=O)CN4CCOCC4)c3)nnc2c2ccccc12	i	.	.	5	.
C=CCN1C=C2C(=O)C(C)(OC(=O)c3ccco3)C(=O)C(C=C)=C2C=C1C1CC1 (stereo not drawn)	i	.	.	-2	.
CCCCC1=CC2=C(c3ccco3)C(=O)C(C)(OC(=O)c3ccc(OC)cc3)C(=O)C2=CN1C1CCCC1 (stereo not drawn)	i	.	.	1	.
O=C1CN2Cc3c(ccc(Cl)c3Cl)N=C2N1	i	.	.	-1	.
CC(C)(C)OC(=O)N1CCC2(CC1)Oc1ccc(F)cc1C(=O)C21CC(c2ccc(Cl)cc2)=NO1 (stereo not drawn)	i	.	.	12	.
CN1CCc2nc(SCc3ccc(Cl)cc3)c(C#N)c(-c3cccs3)c2C1	i	.	.	-4	.
C#CCOCCOCCOCCNc1nc(N2CCN(C(=O)[C@H](CCCCN)n3cc(C(N)CO)nn3)CC2)nc(N2CCN(C(=O)[C@H](CCCCN)n3cc(C(N)COC(=O)C(F)(F)F)nn3)CC2)n1 (stereo partly drawn)	i	.	.	-8	.

Ordered by SMILES length (smallest number first): some entries from above
SMILES	Rce1 inhib	Yeast UUG start	eIF4H inh	CSC inhib	PABP polyA inh
Oc1ccc(O)cc1	i	.	.	15	.
Cc1ccc(O)c(O)c1	i	.	.	8	.
O=C(c1cccc2ccccc12)n1nnc2ccccc21	i	.	.	32	.
CCC(c1nnc(SCCNCCO)n1CCN1CCOCC1)N(C)C (stereo not drawn)	i	.	.	-8	.
CCCN(CCC)c1nc2ccccc2nc1C(C#N)C(=O)OC(C)COC (stereo not drawn)	i	.	.	11	.
CN1CCc2nc(SCc3ccc(Cl)cc3)c(C#N)c(-c3cccs3)c2C1	i	.	.	-4	.
CCSc1nc2sc3c(c2c2nnc(SCC(=O)NCc4ccco4)n12)CCCC3	i	.	.	2	.
Cc1nn2c(-c3cccc(NC(=O)CN4CCOCC4)c3)nnc2c2ccccc12	i	.	.	5	.
Cc1cc(NC(=O)CSc2nc(C3CC3)nc3sc4c(c23)CCC(C)C4)no1 (stereo not drawn)	i	.	.	-7	.
COc1ccc(C2c3c(oc4ccccc4c3=O)C(=O)N2CCCN2CCOCC2)cc1 (stereo not drawn)	i	.	.	-14	.
CC1=NN(c2ccccc2)C(=O)/C1=C/c1c(C)[nH]n(-c2ccc(C)cc2)c1=O	i	.	.	-6	.
COc1ccc(-c2oc3c4c(cc(OC)c3c(=O)c2CC=C(C)C)OC(C)(C)C=C4)c(OC)c1	i	.	.	101*	.
CC(C)(C)OC(=O)N1CCC2(CC1)Oc1ccc(F)cc1C(=O)C21CC(c2ccc(Cl)cc2)=NO1 (stereo not drawn)	i	.	.	12	.
C#CCOCCOCCOCCNc1nc(N2CCN(C(=O)[C@H](CCCCN)n3cc(C(N)CO)nn3)CC2)nc(N2CCN(C(=O)[C@H](CCCCN)n3cc(C(N)COC(=O)C(F)(F)F)nn3)CC2)n1 (stereo partly drawn)	i	.	.	-8	.

More compounds
SMILES	Rce1 inhib	Yeast UUG start	eIF4H inh	CSC inhib	PABP polyA inh
Cc1ccc(NC(=O)COc2ccc(C(=O)NCCc3ccccc3)cc2)cc1	i	.	.	9	.
CC1(OC(=O)c2cccs2)C(=O)C=C2C=C(c3ccc(C#N)cc3)OC=C2C1=O (stereo not drawn)	i	.	.	-9	.
O=C(O)C1Nc2ccc(OC(F)(F)F)cc2C2C=CCC12 (stereo not drawn)	i	.	.	10	.
CCCCn1c(NC(=O)c2ccc(F)cc2)c(C#N)c2nc3ccccc3nc21	i	.	.	67	.
CCOC(=O)c1cnc(Nc2nc3ccccc3o2)nc1CSc1ncccn1	i	.	.	0	.
CC1(C)C2CC[C@]3(C)C(CC=C4[C@@H]5C[C@@](C)(CO)[C@@H]6C[C@@]5(CC[C@]43C)C(=O)O6)[C@@]2(C)CC[C@@H]1O (stereo partly drawn)	i	.	.	-15	.
CC(C)(C)NS(=O)(=O)c1cccc2nsnc12	i	.	.	-11	.
O=C1c2cccc(O)c2C(=O)c2c(O)cc(CO)cc21	i	.	.	-12	.
COC/C=C/C1=CC2=CC(=O)C(C)(OC(=O)c3cnc4ccccc4n3)C(=O)C2=CN1C1CCCC1 (stereo not drawn)	i	.	.	10	.
CS(=O)(=O)c1ccc(-c2cc(Br)sc2-c2ccc(F)cc2)cc1	i	.	.	22	.
COc1ccc(S(=O)(=O)N(C)C[C@@H]2OCc3ccccc3-c3ccccc3C(=O)N([C@@H](C)CO)C[C@@H]2C)cc1	.	12	.	.	.
CNC[C@@H]1Oc2ccc(NC(=O)Nc3cccc4ccccc34)cc2C(=O)N([C@@H](C)CO)C[C@H]1C	.	7	.	.	.
O=C(C[C@H]1CC[C@H]2[C@@H](COC[C@@H](O)CN2C(=O)c2ccccc2F)O1)NCc1ccc(F)cc1	.	14	.	.	.
CN1C[C@H]2[C@@H](c3ccccc31)[C@@H](CO)N2C(=O)C1CCOCC1	.	-2	.	.	.
Cc1ccc(S(=O)(=O)N(C)C[C@H]2Oc3ccc(NC(=O)NC4CCCCC4)cc3CC(=O)N([C@@H](C)CO)C[C@@H]2C)cc1	.	16	.	.	.
CS(=O)(=O)Nc1ccc2c(c1)[C@@H]1C[C@H](CC(=O)N3CCCCC3)O[C@@H](CO)[C@@H]1O2	.	1	.	.	.
CCCC#Cc1ccc([C@H]2[C@@H](CO)N3CCCCN(CC4CC4)C[C@@H]23)cc1	.	-2	.	.	.
CCCNC(=O)[C@@H]1[C@@H](CO)[C@@H]2Cn3c(ccc(-c4ccc(F)cc4)c3=O)[C@H]1N2CCC	.	1	.	.	.
COc1ccc(S(=O)(=O)Nc2cccc3c2O[C@@H](CN(C)C(=O)Nc2c(C)noc2C)[C@@H](C)CN([C@@H](C)CO)C3=O)cc1	.	0	.	.	.
CO[C@H]1CN(C)C(=O)c2cc(NC(=O)C3CCC3)ccc2OC[C@@H](C)N(C(=O)NC(C)C)C[C@H]1C	.	19	.	.	.
CN(C)CCCNC(=O)C[C@@H]1CC[C@H]2[C@@H](COC[C@H](O)CN2S(=O)(=O)c2ccccc2)O1	.	3	.	.	.
COc1ccccc1C(=O)N1C[C@@H]2[C@H](c3ccccc31)[C@H](CO)N2CC1CCOCC1	.	0	.	.	.
C[C@@H]1CN([C@@H](C)CO)C(=O)c2cc(NC(=O)Nc3ccc(F)cc3)ccc2O[C@@H]1CN(C)Cc1ccc(C(=O)O)cc1	.	1	.	.	.
COc1ccc(S(=O)(=O)Nc2ccc3c(c2)C(=O)N([C@@H](C)CO)C[C@@H](C)[C@H](CN(C)CC2CC2)O3)cc1	.	35	.	.	.
CCC(=O)N1CC[C@@H]2[C@H]1c1cc(C#Cc3cccc(OC)c3)ccc1N[C@@H]2CO	.	-1	.	.	.
Cc1ccccc1-c1ccc([C@@H]2[C@@H](CO)N3CCCCN(S(=O)(=O)c4ccc(F)cc4)C[C@H]23)cc1	.	-8	.	.	.
COc1ccccc1NC(=O)N1CCCCN2[C@H](CO)[C@H](c3ccc(C#CC4CCCC4)cc3)[C@@H]2C1	.	7	.	.	.
COc1ccc(S(=O)(=O)Nc2cccc3c2O[C@H](CN(C)C(=O)Nc2ccc(F)cc2)[C@@H](C)CN([C@H](C)CO)C3=O)cc1	.	-1	.	.	.
Cc1ccc(S(=O)(=O)N2CC[C@@H]3[C@H]2c2cc(-c4ccc(C#N)cc4)ccc2N[C@@H]3CO)cc1	.	-13	.	.	.
COCC(=O)Nc1ccc2c(c1)C(=O)N(C)[C@H]1CC[C@@H](CC(=O)NCCCN(C)C)O[C@H]1CO2	.	11	.	.	.
COCC(=O)N(C[C@@H]1N[C@@H](CO)[C@H]1c1ccc(-c2ccccc2)cc1)C(C)C	.	15	.	.	.
CCCNC(=O)N1[C@@H]2CN(C(=O)c3cccnc3)c3ccccc3[C@@H]2[C@@H]1CO	.	-13	.	.	.
